# nsP2pro primary: CHIKV nsP2 protease inhibition, primary qHTS. Q8JUX6. FRET peptide cleavage, nsP2pro, fluorescence 1 h. Potency, µM (top dose mostly 24.9 µM), for inactives: at the top dose activity change, negative = inhibition, usual class: inhibitors. 31,000 compounds, 1.1% hits; active means well fitted inhibition curve with a large enough effect; inconclusive means small, poorly fitted or top-dose-only effect; inactive means no such curve, though single readings can be large or run the other way; further: nearly all actives have a fitted effect of over 60% in size; a reference inhibitor and vehicle were the controls
# Numbers without * were called inactive; i = inactive; ? = inconclusive; & = joins results of further samples; ! = repeats disagree; [ ] = another dose, or the depositor's remark. On the % scale 0 is the no-effect control and ±100 the full control effect; potency means the concentration at half of the fitted maximal effect. A portion of the library, so the mix of outcomes need not match the whole.
cpd	canonical_smiles	nsP2pro primary
1	C[C@@]12CC3(S(=O)(=O)O)OC(O1)[C@]1(COC(=O)c4ccccc4)[C@H]3C[C@]21O[C@@H]1O[C@H](CO)[C@@H](O)[C@H](O)[C@H]1O	-17%[10 µM]
2	CCOc1ccccc1CN1CCc2nc(N3CCN(C)CC3)ncc2C1	?
3	CCCCOc1ccc(CNC(=O)C2CCCN(c3nnc(-n4c(C)ccc4C)s3)C2)cc1 (centres undefined)	-9%
4	O=C(NCC(F)(F)F)c1cc(C2CCN(C(=O)c3cc(-c4ccco4)[nH]n3)CC2)[nH]n1	1.1µM*
5	COc1ccc(-c2nc3sc(CCNC(=O)c4ccco4)c(C)n3n2)cc1	-7%
6	O=C(Nc1ccc(C(F)(F)F)cc1)C(Cc1ccccc1)n1cccc1 (centres undefined)	-4%
7	COc1ccc(NC(=O)C2CCN(c3ccc(Sc4ccc(C)cc4)nn3)CC2)c(OC)c1	-16%
8	Cn1c(=O)c2c(ncn2Cc2ccc(C(C)(C)C)cc2)n(C)c1=O	-3%
9	CCCN(CCC)C(=O)CSc1c2c(nc3ccc(Cl)cc13)CCCC2	-9%
10	CCOC(=O)c1cc(=O)c2c(OCC(COc3cccc4oc(C(=O)OCC)cc(=O)c34)OC(=O)[C@@H](N)CCCCN)cccc2o1	-33%
11	CCCc1ccc(C(=O)O)cc1	-1%
12	Cc1cc(C)c2oc(C(=O)Nc3sc4c(c3C(=O)NCc3ccco3)CCC4)cc(=O)c2c1	-8%

# Filtered by structure: the entries above containing nitrogen in an aromatic ring.
cpd	canonical_smiles	nsP2pro primary
2	CCOc1ccccc1CN1CCc2nc(N3CCN(C)CC3)ncc2C1	?
3	CCCCOc1ccc(CNC(=O)C2CCCN(c3nnc(-n4c(C)ccc4C)s3)C2)cc1 (centres undefined)	-9%
4	O=C(NCC(F)(F)F)c1cc(C2CCN(C(=O)c3cc(-c4ccco4)[nH]n3)CC2)[nH]n1	1.1µM*
5	COc1ccc(-c2nc3sc(CCNC(=O)c4ccco4)c(C)n3n2)cc1	-7%
6	O=C(Nc1ccc(C(F)(F)F)cc1)C(Cc1ccccc1)n1cccc1 (centres undefined)	-4%
7	COc1ccc(NC(=O)C2CCN(c3ccc(Sc4ccc(C)cc4)nn3)CC2)c(OC)c1	-16%
8	Cn1c(=O)c2c(ncn2Cc2ccc(C(C)(C)C)cc2)n(C)c1=O	-3%
9	CCCN(CCC)C(=O)CSc1c2c(nc3ccc(Cl)cc13)CCCC2	-9%

# (listing goes on)
cpd	canonical_smiles	nsP2pro primary
13	COc1cccc(N2CCN(C(=O)c3cc4c(=O)n(Cc5cccnc5)ccc4nc3C)CC2)c1	-19%
14	N#Cc1ccccc1NC(=O)C(=O)NCC(c1ccc2c(c1)OCO2)N1CCOCC1 (centres undefined)	-17%
15	Cc1ccsc1CN(C)c1ncnc2ccc(-c3oc(-c4ccccc4)nc3C)cc12	i
16	COc1ccc(Cl)cc1NC(=O)N1CC(=O)Nc2sc3c(c2C1c1ccccc1)CCCC3 (centres undefined)	4%
17	Oc1cn2c(n1)Nc1ccc(Cl)c(Cl)c1C2	11%[10 µM]
18	O=C(OCC#CCSc1nnc(-c2cccc3ccccc23)o1)c1ccc(C(F)(F)F)cc1	-7%
19	Cc1cccc(N2CCN(c3nc4ccc(C(=O)c5ccccc5)cc4n4cnnc34)CC2C)c1 (centres undefined)	12%
20	O=C1c2ccccc2C(=O)N1c1ccccn1	i
21	Cc1ccc(S(=O)(=O)N2CCN(Cc3ccccc3Cl)CC2)cc1	-8%
22	CCCC(C)NC(=O)Cn1nc(-c2ccc(C)cc2)ccc1=O (centres undefined)	-10%
23	FC(F)(F)c1cccc(N2CCN(C(=S)Nc3nccc4ccccc34)CC2)c1	-10%&-3%
24	FC(F)(F)c1ccccc1-c1nc(NCc2ccc3c(c2)OCO3)c2ccccc2n1	1%
25	COCCCNC(=O)c1ccc2c(=O)n(Cc3ccc(OC)cc3)c(=O)[nH]c2c1	-2%
26	O=c1[nH]c2ccccc2n1CCN1CCN(c2cccc(C(F)(F)F)c2)CC1	2%&-11%
27	CCOc1ccc2c(c1)c(=O)c(C(=O)c1ccc3c(c1)OCO3)cn2Cc1cccc(F)c1	-20%
28	Cn1cc(Br)c(C2N=C(Nc3nc4ccccc4o3)NC3=C2C(=O)CCC3)n1 (centres undefined)	i
29	CN(C)c1ccc(-c2nc3ncc(Cl)c(N4CCN(CC(=O)Nc5nccs5)CC4)c3[nH]2)cc1	39%[10 µM]
30	Brc1ccc(-c2csc(N3CCCCC3)n2)cc1	i
31	CCOc1ccc(NS(=O)(=O)c2ccc3[nH]cc(C(=O)NCC4CCCO4)c(=O)c3c2)cc1 (centres undefined)	-8%
32	CC(C)C(=O)O[C@@H]1[C@@H](O)[C@@H](O[C@H]2O[C@H](CO)[C@@H](O)[C@H](O)[C@H]2O)O[C@H](CO)[C@H]1O	?
33	COc1ccc(-c2oc3cc(O)cc(O)c3c(=O)c2O)cc1	8%
34	CC(=O)NCCNc1cc(Cl)nn2c(-c3cccc(S(=O)(=O)N(C)C)c3)c(C)nc12	17%
35	Cc1ccc(CNc2nc(-c3ccccc3C(F)(F)F)nc3ccccc23)s1	-9%
36	O=C1NC2(CCCN([S+](=O)([O-])c3ccsc3)C2)COc2ccccc21 (centres undefined)	i
37	Cc1ccc(C(=O)N[C@H]2CO[C@H]3[C@@H]2OC[C@@H]3n2cc(-c3ccccc3)nn2)cc1	1%[39.2 µM]
38	Clc1ccccc1-c1nc(NCc2ccc(-c3cccnc3)cc2)c2ccccc2n1	2%
39	O=C(CC[C@H]1NC(=O)c2ccccc2NC1=O)Nc1nnc(C2CC2)s1	-6%
40	O=C1c2ccccc2NC(c2ccc(-c3ccc(Br)cc3)o2)N1O (centres undefined)	13µM*
41	O=C(c1ccccc1)N1CCC(Oc2cccc(F)c2)(C(=O)O)CC1	i
42	CN(C)c1cccc(C(=O)N2CCC(c3c[nH]c4ccccc34)(c3c[nH]c4ccccc34)CC2)c1	-2%
43	O=C(Nc1cc(Cc2ccccc2)ccn1)c1ccc(-c2cccc([N+](=O)[O-])c2)o1	?
44	COc1ccccc1CN1CCC(CNC(=O)c2cnn(-c3ccc(C)c(C)c3)c2C2CCN(C(=O)OC(C)(C)C)CC2)CC1	24%
45	CCC(Oc1ccccc1)C(=O)N1CCN(Cc2cc(=O)n3nc(-c4cccc(C)c4)sc3n2)CC1 (centres undefined)	-3%
46	O=C(O)c1ccc2c(c1)C(=O)N([C@]1(C(=O)O)CC1c1ccccc1)C2=O (some centres undefined)	?
47	COc1ccccc1NC(=O)N1CCN(Cc2nc3ccc(C)cc3o2)CC1	-17%
48	COc1cc(/C=C/c2ccccc2)c(C(=O)O)c(O)c1CC=C(C)C	?
49	COC1CCOC2(CCN(S(=O)(=O)c3c(C)noc3C)CC2)C1 (centres undefined)	-1%
50	COC(=O)C1C(c2ccc(O)cc2)C(C(=O)O)C1c1ccc(O)cc1 (centres undefined)	-3%
51	CC(=O)Nc1ccc(C(=O)N2CCC3(CC2)CN(C)CCN3C)c(C)c1	i
52	CCCOc1ccc(CNC(=O)C2CCN(c3nn4c(=O)cc(C)nc4s3)CC2)cc1	-15%
53	O=S(=O)(Nc1cc(O)cc2cccnc12)c1ccc(Br)s1	i
54	COc1ccc(-n2c(-c3ccc(Cl)cc3)cc3c2CC(C)(C)CC3=O)c(OC)c1	-17%
55	COc1cccc(NC(=O)CSc2nc3ccccc3n2C)c1	1%
56	Cc1cc(CN(C)Cc2ccc(F)cc2)no1	0%[39.2 µM]
57	Cc1ccsc1CN(C(=O)c1oc2cc(Br)ccc2c1C)C1CCS(=O)(=O)C1 (centres undefined)	-6%
58	O=C(c1cccc(Cl)c1F)N1CCN(Cc2cccc(Nc3nccs3)n2)CC1	91%[activator]
59	CCc1cc(CN(C)C(=O)C(c2ccc(C)cc2)N(C)C)on1 (centres undefined)	i
60	O=C(c1ccccc1)N1CCC2(CC1)C(=O)NN=C2c1ccccn1	-8%[39.2 µM]
61	C[C@H](NC(=O)Cc1cc(F)cc(F)c1)C(=O)N[C@H](C(=O)OC(C)(C)C)c1ccccc1	-20%&2%
62	C=C(C)[C@@H]1CC[C@]2(C(=O)O)CC[C@]3(C)[C@H](CCC4[C@@]5(C)CCC(=O)C(C)(C)C5C(O)C[C@]43C)C12 (some centres undefined)	3%[10 µM]
63	COc1ccc(C)cc1S(=O)(=O)NCC(c1ccc(N(C)C)cc1)N1CCc2ccccc21 (centres undefined)	-24%
64	Cc1ccccc1Nc1c(-c2c[nH]c3ccccc23)nc2cccc(C)n12	-18%
65	c1csc(CCNc2ncnc3ccc(-c4ccc5c(c4)OCO5)cc23)c1	-10%
66	C=C1CC2OC(=O)C(COC)C2C(OC(=O)/C(C)=C\C)CC2(C)OC1=CC2=O (centres undefined)	-3%
67	CC(C)CC(=O)O[C@@H]1O[C@H](CO)[C@@H](O[C@H]2O[C@H](C)[C@@H](N[C@H]3C=C(CO)[C@@H](O[C@H]4O[C@H](CO)[C@@H](O[C@H]5O[C@H](CO)[C@@H](O[C@H]6O[C@H](CO)[C@@H](O)[C@H](O)[C@H]6O)[C@H](O)[C@H]5O)[C@H](O)[C@H]4O)[C@H](O)[C@H]3O)[C@H](O)[C@H]2O)[C@H](O)[C@H]1O	-6%[5.1 µM]
68	Cc1c(CCNC(=O)c2ccc(C(C)(C)C)cc2)sc2nc(-c3ccc(F)cc3)nn12	-6%
69	O=C(CN1C(=O)COc2ccc(S(=O)(=O)N3CCCCC3)cc21)NCc1ccc(Cl)cc1	-13%
70	CCOc1ccc(NC(=O)CC2C(=O)N(c3ccc(C)cc3)C(=O)N2CCC2=CCCCC2)cc1 (centres undefined)	-5%
71	Cc1ccc(OCCn2c(CCNC(=O)c3ccncc3)nc3ccccc32)cc1	-12%
72	O=C(CCCCCn1c(=O)c2sccc2n(Cc2ccc(Cl)cc2)c1=O)NCc1ccc2c(c1)OCO2	-17%

# The list goes on.
cpd	canonical_smiles	nsP2pro primary
73	CCC(CC)C(=O)NCCc1nc2ccccc2n1CCOc1ccc(C)cc1	-22%
74	CC(C)c1ccc(C(=O)Nc2cc(-c3ccccc3F)nn2-c2ccccc2)cc1	-29%
75	O=C(/C=C/c1ccc(O)cc1)OCC1=CC2OC(=O)C3=CO[C@@H](O[C@@H]4O[C@H](CO)[C@@H](O)[C@H](O)[C@H]4O)[C@H]1[C@@H]32 (some centres undefined)	0%[10 µM]
76	COc1cc2c(cc1Cc1cccc(Cl)c1F)c(=O)c(C(=O)O)cn2[C@H](CO)C(C)C	32%&35%[activator]
77	CCCS(=O)(=O)NC1CC(N(C)c2ncnc3[nH]ccc23)C1 (centres undefined)	-6%
78	CC(C)[C@@H]1CN(C(=O)c2scc3c2CCCC3)C[C@H]1NS(C)(=O)=O	0%
79	CC1Cn2c(C(=O)NCCc3ccc(Cl)cc3)cc3cccc(c32)S1 (centres undefined)	0%
80	COc1ccc(-c2ccc(NS(=O)(=O)c3ccc(C(C)=O)cc3)cc2)nn1	-4%
81	COc1ccc2c(c1)Oc1nc(-c3ccc(C)cc3)nc(SCC(=O)Nc3cccc(C(=O)O)c3)c1C2	i
82	O=C(CCN1CCN(C(=O)OCc2cc(Cl)cc(Cl)c2)CC1)c1ccc2[nH]c(=O)oc2c1	0.99µM*!
83	O=C(Nc1ccc(Cl)nc1)c1cccn2cncc12	-20%[39.2 µM]
84	C[C@H]1CCCN1C(=O)c1nnc(CNCCCn2ccnc2)n1-c1ccccc1	4%[39.2 µM]
85	COC(=O)c1cnc(NCc2ccc(F)cc2)c2ccccc12	1%
86	Cc1cc(N[S+](=O)([O-])c2ccc(NC(=O)Cc3ccc(C(F)(F)F)c(F)c3)cc2)no1	i
87	c1cc(OCCCN2CCCCC2)ccc1CN1CCCCC1	-11%
88	CCOc1cc2c(cn1)NCCN(Cc1ccncc1Cl)C2	?
89	COc1cc(NS(=O)(=O)c2ccc3ccccc3c2)c2ncccc2c1	i
90	Cc1noc(C)c1-c1ccc(Nc2nc(-c3ccncc3)nc3ccccc23)cc1F	i
91	COC1CCN(c2cc(-c3ccsc3)nc3c(C)noc23)CC1	i
92	COc1ccc(CNC(=O)CC(C)CC2=NS(=O)(=O)c3ccccc3N2)cc1 (centres undefined)	-23%
93	Cc1cc(C)nc(NC(=S)N2CC3CN(c4ccc(Cl)cc4C(F)(F)F)CC3C2)c1 (centres undefined)	?
94	CN1C(=O)N(c2ccc(C#N)c(C(F)(F)F)c2)C(=O)[C@]1(CO)c1ccccc1	-5%
95	CCC(=O)CCCCC[C@@H]1NC(=O)[C@H]2CCCCN2C(=O)[C@H]([C@@H](C)CC)NC(=O)[C@H](Cc2cn(OC)c3ccccc23)NC1=O	-14%
96	CNC12CC3C[C@@](C)(C1)C[C@](C)(C3)C2	-5%
97	CCCN(CCC)CCCNC(=O)c1sc2nc3n(c(=O)c2c1C)CCC3	-13%
98	O=C1NC(=O)/C(=C/c2cccn2-c2ccc(P(=O)(O)O)cc2)N1	-2%
99	CCCCC(CC)CNC(=O)CCCCn1c(=O)[nH]c2ccsc2c1=O (centres undefined)	-14%
100	CC(=O)c1cccc(NC(=O)CCCSc2nc(-c3ccco3)cc(C(F)(F)F)n2)c1	-2%
101	CCC(=O)N(C1CCOCC1)C1CCN(S(=O)(=O)c2ccc(Cl)c(C)c2)CC1	i
102	CC(=O)Nc1ccc2nc(SCCOc3ccccc3)sc2c1	-14%
103	O=C(CCCCCCNC(=O)c1cnc(N(c2ccccc2)c2ccccc2Cl)nc1)NO	?
104	C[C@H]1[C@H](C)CC[C@]2(C(=O)O)CC[C@]3(C(=O)O)C(=CCC4[C@@]5(C)CC[C@H](O[C@@H]6O[C@@H](C)[C@H](O)[C@@H](O)[C@H]6O)C(C)(C)C5CC[C@]43C)[C@H]12 (some centres undefined)	-10%[10 µM]
105	CCOC(=O)c1c(C)[nH]c(C)c1S(=O)(=O)NCC(=O)Nc1cc(C)ccc1OC	-13%
106	O=C(OCC#CCSc1nnc(-c2cccc3ccccc23)o1)c1cccc(F)c1	i

# Assay outcomes from PubChem.
